DUX4 inh = blocks DUX4-driven transcriptional activation. 293T-iDUX4 ZSCAN4-Gaussia luciferase reporter, 24 h; hits give low values. hit rate 0.8% among 37,000. activity change, negative = inhibition, % (test concentration not listed);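 active = -10% or lower and over 25 points stronger than a control reporter; inconclusive = -10% or lower with a smaller gap; inactive = above -10%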;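 also: 0% = median of neutral control wells and -100% = median of positive control wells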
DUX4 inh difference = also measured in DUX4 inh; calls as there; Gaussia minus Italica difference, %; measured here: selective DUX4 reporter inhibition;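 worked out from the two reporters; negative = selective loss of the DUX4 reporter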
DUX4 inh control = second read-out of DUX4 inh, no call of its own (marks repeat the call); activity change, negative = inhibition, %; measured here: Italica tet-on control reporter;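 0 = neutral control and -100 = positive control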
* = called active by the depositor; ? = inconclusive; · = not tested or not shown; & = joins results of further samples.

1	C[C@@H]1CCCCO[C@@H](CN(C)Cc2ccccc2)[C@H](C)CN([C@@H](C)CO)C(=O)c2cc(NC(=O)Nc3ccc(F)cc3)ccc2O1
2	C[C@H](CO)N1C[C@H](C)[C@@H](CN(C)S(=O)(=O)c2cccs2)OCc2cn(nn2)CCCC1=O
3	COCC(=O)N1[C@H](CO)[C@H](c2ccc(C#CCC3CCCC3)cc2)[C@@H]1C#N
4	C[C@@H]1CN([C@@H](C)CO)C(=O)c2cc(C#Cc3cccc(F)c3)cnc2O[C@@H]1CN(C)CC1CCCC1
5	C/C=C/c1ccc([C@H]2[C@@H](C#N)N(C(=O)c3cccnc3)[C@@H]2CO)cc1
6	CCCC#Cc1cnc2c(c1)C(=O)N([C@@H](C)CO)C[C@H](C)[C@@H](CN(C)C(=O)C1CCC1)O2

screen / no.,1,2,3,4,5,6
DUX4 inh,2,1,1,-2,-2,3
DUX4 inh difference,1,-3,1,1,1,-1
DUX4 inh control,1.3,4.0,-0.4,-2.8,-2.3,3.3

7	C[C@H]1CCCCO[C@@H](CN(C)S(=O)(=O)c2cn(C)cn2)[C@@H](C)CN([C@@H](C)CO)C(=O)c2cc(NS(=O)(=O)c3cccs3)ccc2O1
8	COC(=O)[C@H]1[C@H](CO)[C@H]2Cn3c(ccc(C4=CCCCC4)c3=O)[C@H]2N1CCC(F)(F)F
9	O=C(c1ccc(F)cc1)N1CC(=O)N2[C@@H](CO)[C@@H](c3ccc(C#CCC4CCCC4)cc3)[C@@H]2C1
10	COc1ccccc1CNC(=O)C[C@H]1CC[C@H]2[C@H](COc3ccc(NS(=O)(=O)c4ccc(C)cc4)cc3C(=O)N2C)O1
11	CCCNC(=O)C[C@@H]1CC[C@@H]2[C@H](COc3ccc(NS(=O)(=O)c4ccccc4C)cc3C(=O)N2C)O1
12	COc1ccc2c3c(n(C)c2c1)[C@H](CO)N(Cc1ccccc1)CC31CN(C(=O)c2ccccc2F)C1

screen / no.,7,8,9,10,11,12
DUX4 inh,1,7,?,-3,-1,?
DUX4 inh difference,3,7,·,2,-1,·
DUX4 inh control,-2.0,0.2,·,-4.3,-0.2,·

13	C[C@H]1CN([C@@H](C)CO)C(=O)CCCn2nncc2CO[C@@H]1CN(C)Cc1ccc2c(c1)OCCN2C
14	COc1cccc(NC(=O)C[C@@H]2CC[C@H]3[C@H](COc4ccc(NC(=O)C5CC5)cc4C(=O)N3C)O2)c1
15	Cc1noc(C)c1NC(=O)Nc1ccc2c(c1)CC(=O)N([C@@H](C)CO)C[C@@H](C)[C@H](CN(C)Cc1ccc(C(F)(F)F)cc1)O2
16	CCCNC(=O)N1C[C@@H]2[C@H](c3ccccc31)[C@@H](CO)N2C(=O)Nc1ccccc1F
17	CN1C(=O)c2cc(NC(=O)c3cnccn3)ccc2OC[C@H]2O[C@@H](CC(=O)NCC3CCCCC3)CC[C@@H]21
18	Cc1cc(C(=O)Nc2cccc3c2O[C@H](CN(C)C)[C@@H](C)CN([C@@H](C)CO)C3=O)n(C)n1

screen / no.,13,14,15,16,17,18
DUX4 inh,0,1,0,2,3,-1
DUX4 inh difference,-3,-5,-1,2,2,2
DUX4 inh control,3.1,6.1,0.9,0.1,1.1,-2.9

19	CN1C[C@H]2[C@@H](c3ccccc31)[C@H](CO)N2Cc1ccccc1
20	Cc1ccccc1-c1ccc([C@H]2[C@@H](CO)N3CCCCN(C(=O)CN4CCOCC4)C[C@H]23)cc1
21	O=C([C@H]1[C@H](CO)[C@H]2Cn3c(cccc3=O)[C@@H]1N2C(=O)CC1CC1)N1CCCCC1
22	Cc1noc(C)c1S(=O)(=O)N(C)C[C@@H]1OCCCC[C@H](C)Oc2ccc(NS(=O)(=O)c3cn(C)cn3)cc2C(=O)N([C@H](C)CO)C[C@@H]1C
23	N#C[C@H]1[C@H](c2ccc(C#CC3CC3)cc2)[C@@H](CO)N1S(=O)(=O)c1ccccc1
24	C[C@@H]1CN([C@H](C)CO)C(=O)Cc2cc(NC(=O)Cn3cnnn3)ccc2O[C@H]1CN(C)S(=O)(=O)c1ccc(Cl)cc1

screen / no.,19,20,21,22,23,24
DUX4 inh,-2,9,1,5,-3,2
DUX4 inh difference,-2,1,3,8,-1,19
DUX4 inh control,0.2,8.6,-1.6,-3.2,-2.7,-17

25	CC(=O)N1[C@H](CO)[C@H](c2ccccc2)C12CN(Cc1nccs1)C2
26	CCC(=O)N1[C@@H]2c3cccc(=O)n3C[C@@H]2[C@@H](CO)[C@@H]1C(=O)NCc1ccc(F)cc1
27	Cc1ccc(-c2ccc(C3[C@H]4CNC[C@@H]3N4S(=O)(=O)c3cn(C)cn3)cc2)cc1 (stereo partly specified)
28	COc1ccc2c3c(n(C)c2c1)[C@H](CO)N(Cc1ccccc1Cl)CC31CCN(C(=O)CN(C)C)CC1
29	COc1ccc(NC(=O)Nc2cccc3c2O[C@@H](CN(C)S(=O)(=O)c2cccs2)[C@@H](C)CN([C@@H](C)CO)C3=O)cc1
30	O=C(C[C@H]1C=C[C@H](NC(=O)NC2CCCCC2)[C@H](CO)O1)NCc1ccc(F)cc1

screen / no.,25,26,27,28,29,30
DUX4 inh,9,10,18&6,-6,3,-4
DUX4 inh difference,6,11,19&1,5,2,-4
DUX4 inh control,3.3,-1.0,-1.5&4.8,-11,0.9,-0.5

31	CN1C(=O)c2cc(NC(=O)Cc3cccs3)ccc2OC[C@@H]2O[C@H](CC(=O)NCCCN3CCOCC3)CC[C@H]21
32	O=C(C[C@@H]1CC[C@@H]2[C@H](COC[C@H](O)CN2C(=O)c2ccncc2)O1)Nc1ccc(-c2ccccc2)cc1
33	CC(C)C#Cc1ccc([C@@H]2[C@H](CO)N3C(=O)CN(C(=O)Cc4cccnc4)C[C@@H]23)cc1
34	C[C@@H]1CCCCO[C@@H](CN(C)S(=O)(=O)c2cn(C)cn2)[C@@H](C)CN([C@@H](C)CO)C(=O)c2cc(N(C)C)ccc2O1
35	C[C@H](CO)N1C[C@H](C)[C@H](CN(C)S(=O)(=O)c2ccccc2F)Oc2ncc(/C=C/c3ccccc3)cc2C1=O
36	CCCC#Cc1ccc([C@@H]2[C@H](CO)N3CCCCN(Cc4ccncc4)C[C@@H]23)cc1

screen / no.,31,32,33,34,35,36
DUX4 inh,-1,-1,2,-6,0,-7
DUX4 inh difference,-1,0,-1,-5,-1,8
DUX4 inh control,-0.3,-1.1,3.1,-1.1,1.2,-14

37	CN1CCN(C(=O)C[C@H]2CC[C@@H]3[C@H](COC[C@@H](O)CN3C(=O)C3CCCC3)O2)CC1
38	CC(C)NC(=O)N(C)C[C@@H]1Oc2ccc(NS(=O)(=O)c3ccc(Cl)cc3)cc2C(=O)N([C@@H](C)CO)C[C@@H]1C
39	COc1ccc2c3c(n(C)c2c1)[C@@H](CO)N(C(=O)Nc1ccc(F)cc1)CC31CN(Cc2ccccc2F)C1
40	COc1ccc(C(=O)N2C[C@H]3[C@@H](c4ccccc42)[C@H](CO)N3C(=O)NC(C)C)cc1
41	CC(=O)NC[C@H]1[C@@H](c2ccc(C3=CCCC3)cc2)[C@@H](CO)N1C(=O)C1CCC1
42	COc1ccc(NC(=O)Nc2ccc3c(c2)[C@@H]2C[C@H](CC(=O)NCc4ccccn4)O[C@H](CO)[C@@H]2O3)cc1

screen / no.,37,38,39,40,41,42
DUX4 inh,0,4,?,10,-4,4
DUX4 inh difference,2,5,·,24,-2,4
DUX4 inh control,-1.6,-0.2,·,-13,-1.8,-0.6

43	Cc1noc(C)c1S(=O)(=O)Nc1ccc2c(c1)C(=O)N([C@@H](C)CO)C[C@@H](C)[C@@H](CN(C)C(=O)Nc1ccc3c(c1)OCO3)OCCCC[C@H](C)O2
44	CCC(=O)N1C[C@H](C)[C@@H](OC)CN(C)C(=O)c2cc(NC(=O)NC3CCCC3)ccc2OC[C@H]1C
45	C[C@@H]1CN([C@@H](C)CO)C(=O)Cc2cc(NC(=O)C3CCCCC3)ccc2O[C@H]1CN(C)Cc1ccc(Cl)c(Cl)c1
46	CC(=O)N1CC2(C1)[C@@H](c1ccccc1)[C@@H](CO)N2C(=O)Cc1ccccc1
47	CN1c2ccc(-c3cccc(F)c3)cc2[C@H]2[C@H](CCN2C(=O)Nc2ccccc2F)[C@H]1CO
48	C[C@H](O)C#Cc1ccc([C@@H]2[C@@H](CO)N3CCCCN(C(=O)c4cccc(F)c4)C[C@@H]23)cc1

screen / no.,43,44,45,46,47,48
DUX4 inh,4,5,1,-4,-9,-4
DUX4 inh difference,4,7,4,-10,11,0
DUX4 inh control,-0.6,-2.2,-3.1,6.2,-20,-4.2

49	CCCN(C)C[C@H]1OCCCC[C@H](C)Oc2ccc(NC(=O)c3ccncc3)cc2C(=O)N([C@H](C)CO)C[C@H]1C
50	CN(C)CC(=O)Nc1ccc2c(c1)[C@@H]1C[C@@H](CC(=O)NC3CCCCC3)O[C@@H](CO)[C@@H]1O2
51	O=C(N[C@H]1C=C[C@H](CC(=O)N2CCCCC2)O[C@H]1CO)c1ccc2c(c1)OCO2
52	C[C@H]1CN([C@@H](C)CO)C(=O)Cc2cc(N(C)C)ccc2O[C@@H]1CN(C)Cc1ccc(-c2ccccc2)cc1
53	COc1ccc(NC(=O)N2CC[C@H]3[C@@H]2c2cc(Br)ccc2N(C)[C@H]3CO)cc1
54	C[C@H](CO)N1C[C@H](C)[C@H](CN(C)C(=O)Nc2ccc3c(c2)OCO3)Oc2c(NS(=O)(=O)c3ccc(Cl)cc3)cccc2C1=O

screen / no.,49,50,51,52,53,54
DUX4 inh,0,8,4,?,21,4
DUX4 inh difference,1,6,5,·,15,4
DUX4 inh control,-0.5,1.6,-0.8,·,5.8,0.1

55	CO[C@@H](CN(C)S(=O)(=O)c1ccc(F)cc1)[C@@H](C)CN([C@@H](C)CO)S(=O)(=O)c1cccc(Cl)c1
56	CCCNC(=O)C[C@H]1C[C@@H]2c3cc(NS(=O)(=O)c4ccc(F)cc4)ccc3O[C@@H]2[C@H](CO)O1
57	CN1C[C@@H]2[C@H](c3ccccc31)[C@@H](CO)N2Cc1ccccc1Cl
58	CO[C@@H]1CN(C)C(=O)c2cc(NC(=O)c3cc(C)on3)ccc2OC[C@H](C)N(C)C[C@@H]1C
59	O=C(NC1CCC1)[C@H]1[C@H](CO)[C@H]2Cn3c(ccc(-c4cncnc4)c3=O)[C@H]2N1C(=O)NC1CCCC1
60	OC[C@@H]1[C@@H](c2ccc(C#CC3(O)CCCC3)cc2)[C@H]2CN(Cc3ccncc3)CCCCN12

screen / no.,55,56,57,58,59,60
DUX4 inh,-3,9,1,-2,1,13
DUX4 inh difference,-5,5,5,0,-2,-7
DUX4 inh control,1.7,4.0,-4.2,-1.9,3.4,20

61	Cc1ccc(S(=O)(=O)N[C@@H]2CC[C@H](CC(=O)N3CCc4ccccc4C3)O[C@H]2CO)cc1
62	COCC(=O)Nc1ccc2c(c1)[C@H]1C[C@@H](CC(=O)NCc3ccccc3F)O[C@H](CO)[C@H]1O2
63	COCC(=O)N1[C@H](C(=O)Nc2ccccc2)[C@@H](CO)[C@@H]2Cn3c(ccc(-c4ccccc4)c3=O)[C@@H]21
64	N#C[C@H]1[C@@H](c2ccccc2-c2ccccc2F)[C@@H](CO)N1C(=O)c1cccc(F)c1
65	COc1ccc2c3c([nH]c2c1)[C@H](CO)N(C(=O)CN(C)C)CC31CCN(Cc2cncnc2)CC1
66	O=C(C1CCOCC1)N1C[C@@H]2N[C@H](C1)C2c1ccc(-c2ccccc2F)cc1 (stereo partly specified)

screen / no.,61,62,63,64,65,66
DUX4 inh,-3,-1,5,-4,7,?
DUX4 inh difference,-4,0,-1,-7,-1,5
DUX4 inh control,0.5,-0.8,6.7,2.8,7.7,-0.8

A draw from above in order of count of non-hydrogen atoms, smallest number first.
66	O=C(C1CCOCC1)N1C[C@@H]2N[C@H](C1)C2c1ccc(-c2ccccc2F)cc1 (stereo partly specified)
64	N#C[C@H]1[C@@H](c2ccccc2-c2ccccc2F)[C@@H](CO)N1C(=O)c1cccc(F)c1
60	OC[C@@H]1[C@@H](c2ccc(C#CC3(O)CCCC3)cc2)[C@H]2CN(Cc3ccncc3)CCCCN12
63	COCC(=O)N1[C@H](C(=O)Nc2ccccc2)[C@@H](CO)[C@@H]2Cn3c(ccc(-c4ccccc4)c3=O)[C@@H]21

screen / no.,66,64,60,63
DUX4 inh,?,-4,13,5
DUX4 inh difference,5,-7,-7,-1
DUX4 inh control,-0.8,2.8,20,6.7

(listing goes on)
67	CC(C)NC(=O)N1CC(=O)N2[C@H](CO)[C@@H](c3ccc(C#CCN(C)C)cc3)[C@@H]2C1
68	CN1c2ccc(-c3cccc(F)c3)cc2[C@H]2[C@H](CCN2C(=O)C2CCOCC2)[C@@H]1CO
69	Cc1noc(C)c1NC(=O)N(C)C[C@@H]1Oc2ccc(NC(=O)CCCCCC(=O)Nc3ccccc3N)cc2CC(=O)N([C@H](C)CO)C[C@H]1C
70	CO[C@H]1CN(C)C(=O)c2cc(NC(=O)NC(C)C)ccc2OC[C@@H](C)N(C(=O)CN(C)C)C[C@@H]1C

screen / no.,67,68,69,70
DUX4 inh,10,4,8,-2
DUX4 inh difference,-5,18,4,-5
DUX4 inh control,15,-14,3.9,2.7

Bioassay records deposited in PubChem BioAssay by Broad Institute.

This is a subset. The share of hits here may be higher or lower than overall.
